Screening results: PubChem, ICCB-Longwood Screening Facility, Harvard Medical School
LANA-nucl inh – inhibitors of KSHV LANA-nucleosome binding, primary screen, biochemical, fluorescence polarization, FITC-LANA1-23, chicken nucleosomes | FITC-LANA1-23 / chicken nucleosome fluorescence polarization; hits give low values | z-score (test concentration not listed) | hit rate 0.3% among 51,000 | AID 720717, 2013;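 active = both repeat wells score below -2 in polarization z-score versus plate sample wells, excluding overly bright wells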;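 also: 100 nL library stock added to about 30 µL; numbers are from one replicate; some results filed as inactive read as strong as hits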
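Test system: purified chicken nucleosomes with FITC-labelled LANA N-terminal peptide (1-23); Input: 240 nM purified chicken nucleosomes (480 nM peptide binding sites), final; Medium: TEN-BT buffer, pH 7.5; Timing: 10–45 min, room temperature; Technique: fluorescence polarization, 480 nm excitation, 535 nm parallel and perpendicular emission; Replication: duplicates.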
BasE inh – BasE siderophore enzyme inhibitors, primary screen, biochemical, Acinetobacter baumannii ATCC 17978, fluorescence polarization; purified BasE, fluorescence polarization binding displacement; inhibition, % (no concentration beside the values); hit rate 0.1% among 84,000; AID 485350, 2010;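 active = both replicates above 25% with normal brightness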;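 also: 0% = negative plate control signal and 100% = positive plate control signal; stock transfer was 100 nL into about 30 µL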
* marks the source's active call; other numbers are inactive results; / = not tested or not shown.

SMILES | LANA-nucl inh | BasE inh
CC(C)(C)c1ccc(CN(Cc2ccco2)Cc2nnnn2C2CCCCC2)cc1 | -0.13 | 0.4
CCOC(=O)c1cnc(SC2CCc3ccccc3C2=O)nc1N (stereo not given) | 0.52 | 0.2
CCN(c1ccc(NC(=O)CN(C)c2ccccc2)cc1)C(C)C | / | -0.9
N#CN(Cc1ccccc1Cl)Cc1ccccc1Cl | 0.5 | /
Cc1csc2c(N3CC(C)OC(C)C3)ncnc12 (stereo not given) | / | 1.0
Cc1cc(N2CCN(C)CC2)nc2ccc(NC(=S)N(C)C3CCCCC3)cc12 | 0.57 | -0.9
Cc1ccccc1NC(=O)C1C2CCCCC21 (stereo not given) | 0.45 | -1.2
Cc1nn(-c2ccccc2)c(C)c1P(C)(=O)c1ccccc1 (stereo not given) | / | -1.8
Cc1cc2c(cc1NC(=O)CCc1ccccc1)n(C)c(=O)c(=O)n2C | -0.62 | 0.4
Cc1cc(C(F)(F)F)n2nc(C(C)C)cc2n1 | -0.95 | 3.4
NNC(=O)c1nc(-c2ccccc2)no1 | / | -2.1
O=C1c2ccccc2C(=O)N1Cc1cccc(F)c1 | / | 1.1

Whole records from above.
Cc1ccccc1NC(=O)C1C2CCCCC21 (stereo not given) across the screens: LANA-nucl inh: 0.45; BasE inh: -1.2
Cc1nn(-c2ccccc2)c(C)c1P(C)(=O)c1ccccc1 (stereo not given) across the screens: LANA-nucl inh: /; BasE inh: -1.8

Additional records.
SMILES | LANA-nucl inh | BasE inh
COc1ccc(NC(=O)c2ccc(-c3nc(COc4ccccc4)c(C)o3)cc2)c(OC)c1 | -1 | 0.7
Cc1ccccc1-c1noc(COC(=O)c2ccc(C#N)cc2)n1 | / | -1.3
Cc1ccc(S(=O)(=O)N2CN(CC3CCCO3)c3nc4ccccc4nc32)cc1C (stereo not given) | -1 | 2.8
CCc1cc2c[n+](C3CCCCC3)sc2s1 | / | 3.0
COc1ccc(S(=O)(=O)N(Cc2nc(-c3ccc(OC)c(OC)c3)no2)C(C)C)cc1 | 0.3 | -0.9
COc1ccccc1Cn1[nH]nnc1=S | / | 3.0
COCCN=c1scc(-c2ccc(C)c(C)c2)n1/N=C(\C)c1ccc(-n2ccnc2)cc1 | / | 2.6
CC(=O)N(C)CC(=O)Nc1cccc2ccccc12 | / | -1.4
Nc1nc2ccc(CCC(=O)O)cc2s1 | 0.12 | 1.4
Oc1cccc2c(Cl)ccc(Cl)c12 | 0.67 | -1.6
O=C(Nc1sc2c(c1C(=O)O)CCC2)c1ccco1 | / | 0.0
CC(C)C1NC(=S)NC2=C1CCCC2 (stereo not given) | / | 0.1
N#Cc1ccccc1S(=O)(=O)N1CCN(c2nc(-c3ccccc3)nc3ccccc23)CC1 | / | 2.3
C#CCN1C(=O)S/C(=C/c2ccccc2)C1=O | 0.4 | -0.7
O=C(COC(=O)C1CC(=O)N(CCc2ccccc2)C1)NC1CC1 (stereo not given) | / | 3.4
Cn1c(/N=C/c2cc(C(C)(C)C)c(O)c(C(C)(C)C)c2)nc2ccccc21 | / | -18
Cc1ccc2c(c1)nc(NCCO)n2C | 0.55 | -0.2
COc1cc(OC)cc(N2C(=O)Cc3c2nc2c4c(nc(N5CCCC5)c(C#N)c34)N=C(C)N2)c1 | / | -2.9
CCOc1ccc2nc(NN)c(C3OCCO3)cc2c1 | 1 | 1.6
COc1ccc(/C=C(\C#N)C(=O)Nc2nccs2)cc1O | / | 1.0
O=C(NNc1ncccc1C(F)(F)F)c1cccc(C(F)(F)F)c1 | 0.38 | -0.8
CC1(C)CC(=O)CC(O)(C(F)(F)F)O1 (stereo not given) | -0.071 | -0.2
CC(=O)N1C(=Nc2ccccc2C)SCC1(C)C | / | -2.3
Cc1ccc(C2=NNC(=O)C(P(=O)(c3ccccc3)c3ccccc3)C2)cc1 (stereo not given) | / | 3.2

16 structures from above, arranged by heavy-atom count, largest number first.
SMILES | LANA-nucl inh | BasE inh
COc1cc(OC)cc(N2C(=O)Cc3c2nc2c4c(nc(N5CCCC5)c(C#N)c34)N=C(C)N2)c1 | / | -2.9
N#Cc1ccccc1S(=O)(=O)N1CCN(c2nc(-c3ccccc3)nc3ccccc23)CC1 | / | 2.3
COCCN=c1scc(-c2ccc(C)c(C)c2)n1/N=C(\C)c1ccc(-n2ccnc2)cc1 | / | 2.6
COc1ccc(S(=O)(=O)N(Cc2nc(-c3ccc(OC)c(OC)c3)no2)C(C)C)cc1 | 0.3 | -0.9
Cc1ccc(C2=NNC(=O)C(P(=O)(c3ccccc3)c3ccccc3)C2)cc1 (stereo not given) | / | 3.2
Cn1c(/N=C/c2cc(C(C)(C)C)c(O)c(C(C)(C)C)c2)nc2ccccc21 | / | -18
O=C(COC(=O)C1CC(=O)N(CCc2ccccc2)C1)NC1CC1 (stereo not given) | / | 3.4
COc1ccc(/C=C(\C#N)C(=O)Nc2nccs2)cc1O | / | 1.0
CCOc1ccc2nc(NN)c(C3OCCO3)cc2c1 | 1 | 1.6
CC(=O)N(C)CC(=O)Nc1cccc2ccccc12 | / | -1.4
CC(=O)N1C(=Nc2ccccc2C)SCC1(C)C | / | -2.3
C#CCN1C(=O)S/C(=C/c2ccccc2)C1=O | 0.4 | -0.7
CCc1cc2c[n+](C3CCCCC3)sc2s1 | / | 3.0
Nc1nc2ccc(CCC(=O)O)cc2s1 | 0.12 | 1.4
CC(C)C1NC(=S)NC2=C1CCCC2 (stereo not given) | / | 0.1
Oc1cccc2c(Cl)ccc(Cl)c12 | 0.67 | -1.6

Next structures follow:
SMILES | LANA-nucl inh | BasE inh
Cc1ccc(CN(C)C(=O)COc2ccccc2-c2ccccc2)o1 | / | 0.3
N#Cc1c(-c2ccc(Cl)cc2)nc2n(c1=O)CCCS2 | / | 2.7
CCc1ccc(NC(=O)N2CCSc3ncccc32)cc1 | / | 2.2
COc1ccc(OC)c(/C=N/NC(=O)c2cn(C)c3ccccc23)c1 | -0.022 | 1.4
O=C(COC(=O)C1CCN(c2ccc(C(F)(F)F)cn2)CC1)c1ccccc1 | / | 0.4
CCCc1cc(C(=O)OC)c(NC(=O)C2CCC2)s1 | 0.3 | 2.9
Cc1ccc(-c2onc3ccc(Cl)cc23)cc1 | / | -1.6
CN(C)C(=O)COC(=O)c1cccc(C#N)c1 | / | 0.8
CN(CC(=O)Nc1ccc(Cl)cc1)C1CCCCN(C(=O)c2ccc(F)cc2)C1=O (stereo not given) | / | -0.3
O=S1(=O)c2cccc3cccc(c23)N1Cc1nnc(-c2ccccc2Br)o1 | / | -3.2
C=CCNCc1ccc(OC)c(OC)c1 | 2.7 | -3.1
COc1ccc(S(=O)(=O)Nc2nc3ccccc3nc2NCC2CCCO2)cc1 (stereo not given) | -0.93 | 1.9
O=S(=O)(c1ccc(S(=O)(=O)N(Cc2cccs2)C2CCCCC2)cc1)N1CCCC1 | 0.21 | -2.1
CCCCC1(C)OC(=O)C(=Cc2ccc3c(c2)OCO3)C(=O)O1 (stereo not given) | -0.7 | 2.8
Cc1c(Cl)cccc1NC(=O)C(CC(=O)O)C1CCCO1 (stereo not given) | -0.059 | 0.2
C=CCOC(=O)c1ccc(NC(C)=O)cc1 | -0.58 | 1.2
O=S(=O)(NS(=O)(=O)c1ccccc1)c1ccccc1 | 0.11 | -0.4
COC(=O)NCc1cccc(CNC(=O)OC)c1 | -0.67 | 3.1
CC1(c2ccccc2)OC(=O)C2C3CCCCC3=C3CCCCC3C21 (stereo not given) | / | 0.6
O=C(O)CCN(C(=O)C1C2C=CC(C2)C1C(=O)O)c1ccccc1 (stereo not given) | 0.013 | 2.2
O=C(c1ccccc1)c1ncc[nH]1 | -0.11 | -0.3
Cc1cccc(NC(=O)c2ccccc2)n1 | -1.7 | -0.7
Nc1nonc1C(=NCc1ccccc1)NO | -0.32 | 0.4
CSc1nsc(SCC(=O)NC2=NC(=O)C(C)S2)n1 (stereo not given) | 0.32 | -0.2
COC(=O)c1ccc(NC(=O)CN(C)Cc2cccc(F)c2)cc1 | / | 0.2
Cc1cc(NC(=O)CCS(=O)(=O)c2nc(-c3ccccc3)cc(C(F)(F)F)n2)no1 | 1.1 | 0.7
O=C1C2CCCC1CC(C(=O)N1CCN(c3ccccc3Cl)CC1)C2 (stereo not given) | / | -0.7
O=C(COC(=O)c1ccc2c(=O)n3c(nc2c1)CCCCC3)NC12CC3CC(CC(C3)C1)C2 | / | 0.8
COCCNC(=O)c1ccc(N2CC3CC(C2)c2cccc(=O)n2C3)c(NC(=O)c2cc3ccccc3oc2=O)c1 (stereo not given) | 0.98 | -0.8
Cn1c(C(C#N)(Cc2ccccc2)Cc2ccccc2)nc2ccccc21 | / | -1.4
CCOc1ccc(OC(=O)c2cccnc2)cc1 | / | -2.1
CCc1ccc(C2C3=C(CCCC3=O)OC3=C2C(=O)CCC3)cc1 | / | 0.2
Cc1cc(C(=O)NCc2cc3ccccc3s2)nn1C | 2 | -4.8
O=C(NCc1ccco1)c1c(-c2ccccc2)c(-c2ccccc2)n[nH]c1=O | -0.79 | -15
COC(=O)c1ccccc1NC(=S)N(C)C | -0.45 | 2.6
CC(=O)Oc1ccc2occ(-c3ccccc3)c2c1 | 0.071 | -0.1
Cn1nc(-c2ccccc2)c(-c2nc3ccccc3n2C)c1-c1ccccc1 | / | -3.3
Cc1cc(C(=O)COC(=O)CSc2ncnc3sccc23)c(C)n1-c1ccc2c(c1)OCO2 | / | -1.5
Cc1cccc(C(=O)NCc2cn3cccc(C)c3n2)c1 | 1.7 | -1.7
C/C(N)=C(/C#N)C(=O)CSc1nnc(SCc2ccc(Cl)cc2)s1 | / | -1.3
O=C1C2C3C=CC(C3)C2C(=O)N1CCN1C(=O)C2C3C=CC(C3)C2C1=O (stereo not given) | -1 | 0.6
CCc1ccc(-c2cc(C)no2)cc1S(=O)(=O)N1CCC(c2ccccc2)C1 (stereo not given) | / | 0.0
CC(C)N=c1scc(-c2ccc(F)cc2)n1/N=C/c1ccc(O)cc1O | / | 0.7
CCN1CCCC1CNC(=O)c1cc(S(N)(=O)=O)ccc1OC (stereo not given) | -0.11 | -3.9
CCOC(=O)c1cc2cc(OCc3ccccc3)ccc2n1C(=O)c1ccccc1C(=O)O | / | 1.0
CC1(c2ccc(Br)cc2)NN=Cc2nc3ccccc3c(=O)n21 (stereo not given) | / | 1.3
N#CCOC(=O)COc1ccc(Cl)cc1Cl | / | -1.8
Cc1ccc(S(=O)(=O)N2CCN(CCOC(=O)c3ccccc3)CC2)cc1C | / | 2.5
Cc1cc2c3c([nH]c2cc1S(=O)(=O)N1CCCC1)CCCC3=O | -0.22 | -2.0
Cc1ccc(-n2c(NN)nc3sc4c(c3c2=O)CCCC4)cc1 | / | 1.3
CC(C)CC(=O)Nc1cccc2c1C(=O)N(c1ccccc1)C2=O | -0.6 | 0.1
CCCCN1C(=O)C2ON(c3ccccc3)C(c3ccc(OC)cc3OC)C2C1=O (stereo not given) | -0.33 | 0.9
Cc1ccc(C(CNC(=O)Nc2ccccc2)N2CCN(C)CC2)cc1 (stereo not given) | -0.79 | 0.3
Nn1c(C2CC2)n[nH]c1=S | / | 2.6
O=C1CC(NC23CC4CC(CC(C4)C2)C3)C(=O)N1Cc1ccc2c(c1)OCO2 (stereo not given) | 0.74 | -0.8
COc1ccc2cc(C#N)c(SCC(=O)N3c4ccccc4CC3C)nc2c1 (stereo not given) | 0.76 | -0.6
N#CCC(=O)N1CCCC1 | 0.97 | /
N#Cc1ccc(Cl)cc1NC(=O)COC(=O)c1n[nH]c2ccccc12 | / | -8.0
COc1ccc(/C=C2/SC(=S)N(CCC(=O)Nc3ccccc3)C2=O)cc1 | / | 1.7
O=C(/C=C/Oc1ccc(Cl)cc1)c1ccc(Br)cc1 | / | -0.3

The results go on:
SMILES | LANA-nucl inh | BasE inh
CCn1cc(/C=C2/C(=O)N(c3ccccc3)N=C2C)c2ccccc21 | / | 2.6
Cc1ccc(Cl)cc1N(C)C(=O)[C@H]1[C@@H]2C[C@@H]3[C@H]1C(=O)O[C@@H]3C2 | -1 | 2.9
Fc1ccc(/C=C/c2onc3ccccc23)cc1 | 0.83 | /
COc1ccc2nc3sc(C(=O)N4CCCC4)c(N)c3cc2c1 | -2 | -14
CCOCC(=O)Nc1ccc(I)cc1 | 0.32 | 1.7
O=C(O)CC1S/C(=N/N=C2CCCC2)NC1=O (stereo not given) | -0.15 | 1.7
Cc1nn(-c2ccccc2)c(N)c1C(O)(C(F)(F)F)C(F)(F)F | / | 1.3
CCCNC(=O)COc1ccc(-c2nn(C)c(=O)c3ccccc23)cc1 | -1 | -0.6
O=C(CSc1nnc2n1CCCN2)c1ccccc1 | / | 0.1
CCc1ccccc1NC(=O)CN(C)CC(=O)NC1CC1 | / | 1.4
CC(C)Cn1c(SCc2ccccc2)nnc1-c1ccncc1 | / | 1.0
COCCn1c(CN2C(=O)c3ccccc3C2=O)nc2cccnc21 | 0.31 | -0.7
C=CCn1c(C)cc(-c2csc(NCc3ccccc3)n2)c1C | / | -0.5
CCCCC(=O)Nc1ccc(N2CCCC2)cc1 | 0.84 | /
c1ccc(-c2ccc(Oc3ncnc4c3oc3ccccc34)cc2)cc1 | / | 0.9
O=C(O)CCS(=O)(=O)c1ccc(Cl)cc1 | -1.1 | 0.6
CN(C)C(=O)N1CCN(Cc2ccc3c(c2)OCO3)CC1 | 0.038 | 0.7
O=C(O)Cc1nc2ccc(Cl)cc2[nH]1 | 0.66 | 2.6
N/C(CCN1CCCCC1)=N\O | 0.029 | 0.8
Nc1ccccc1SCc1cccc(Cl)c1F | / | 0.7
CC(=O)N1CCN(S(=O)(=O)c2cccc(C(=O)Nc3ccc(N(C)C)cc3)c2)CC1 | / | -1.3
CCOC(=O)c1cnc(SC)nc1Nc1ccccc1 | -0.59 | 0.5

This is a subset. The share of hits here may be higher or lower than overall.
